Screening results (PubChem BioAssay)
B2AR ag = activates human beta-2 adrenergic receptor causing internalization; Am2.2-beta2AR cells, FAP receptor internalization, flow cytometry; reference of the scale not given here; hit rate 0.43% among 340,000; P07550; response, % (concentration not given with the values); AID 504454;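 active means response above a set limit, near 3 SD of response in nonfluorescent compounds, cut at about 42% in these data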;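 further: stock transfer was 100 nL into about 11 µL; a reference agonist was the positive control; negative values mostly stem from fluorescent compounds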
Target sequence (P07550 whole entry, looked up): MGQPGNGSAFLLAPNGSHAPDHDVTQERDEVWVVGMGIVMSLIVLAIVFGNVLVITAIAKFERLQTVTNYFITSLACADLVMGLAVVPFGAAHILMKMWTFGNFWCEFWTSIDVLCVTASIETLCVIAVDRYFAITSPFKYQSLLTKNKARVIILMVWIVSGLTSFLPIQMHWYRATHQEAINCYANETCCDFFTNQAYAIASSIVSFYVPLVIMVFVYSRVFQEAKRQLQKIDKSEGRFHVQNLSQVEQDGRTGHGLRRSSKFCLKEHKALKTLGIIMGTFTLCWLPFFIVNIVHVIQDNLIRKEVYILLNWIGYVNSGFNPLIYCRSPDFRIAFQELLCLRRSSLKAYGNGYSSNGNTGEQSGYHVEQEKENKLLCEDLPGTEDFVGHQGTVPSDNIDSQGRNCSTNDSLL
UCH37 DUB inh = human UCH37 deubiquitinating enzyme inhibition. Q9Y5K5. purified proteasome/UCH37, Ub-AMC cleavage fluorescence. inhibition, % (test concentration not listed). hit rate 0.33% among 330,000;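 active means mean of two replicates above 20%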;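 further: 0% = compound-free wells with enzyme and 100% = wells lacking proteasome; stock transfer was 100 nL into about 20 µL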
Target sequence (Q9Y5K5 whole entry, looked up): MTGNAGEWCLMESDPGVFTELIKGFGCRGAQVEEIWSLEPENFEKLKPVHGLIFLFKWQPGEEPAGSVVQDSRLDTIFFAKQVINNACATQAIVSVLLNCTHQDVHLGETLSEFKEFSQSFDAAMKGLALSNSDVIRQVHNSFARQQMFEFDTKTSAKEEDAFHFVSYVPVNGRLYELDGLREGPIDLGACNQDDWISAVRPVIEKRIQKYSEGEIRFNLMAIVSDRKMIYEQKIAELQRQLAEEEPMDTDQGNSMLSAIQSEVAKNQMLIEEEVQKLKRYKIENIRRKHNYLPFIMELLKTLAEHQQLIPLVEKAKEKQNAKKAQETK
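assay system = human UCH37 enzyme supplied as purified proteasome complex | amount = proteasome at 0.15 nM in the dispensed enzyme solution | schedule = 30 min compound-proteasome preincubation then 25 min substrate reaction, room temperature | measured by = fluorescence, ex 355 nm, em 460 nm | benchmarks = no-proteasome wells (full inhibition) and compound-free wells (no inhibition)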
Starred values were filed as active, the others as inactive; & = joins results of further samples.

SMILES	B2AR ag	UCH37 DUB inh
CC(C)=CCN1CC[C@@]2(C)c3cc(O)ccc3CC1C2C (stereo partly specified)	-7	-2.9
CC[C@H](OC(C)=O)C(C[C@H](C)N(C)C)(c1ccccc1)c1ccccc1	0	-2.8
CC[C@H](C)/C=C(C)/C=C/C1=CC2=C(Cl)C(=O)[C@](C)(OC(C)=O)C(=O)C2=CO1	8	16
O=C(O)c1ccc2c(c1)C1C(Cl)C(Sc3ccccc3[N+](=O)[O-])CC1C(c1cccc([N+](=O)[O-])c1)N2 (stereo unspecified)	4	7.4
CNC(C)Cc1ccccc1 (stereo unspecified)	-3	0.1
COc1cccc2c1N=C1CCCC3CN(C(C)=O)CCC123 (stereo unspecified)	-4	1.5
COc1ccc2c(c1)NP(=S)(c1ccccc1)N2C (stereo unspecified)	-1	5.4
C(=NN1CCCCCC1)c1c[nH]c2ccccc12	2	0.7
O=C1NCCCCC1(Cl)Cl	-6	2.2
CCOC(=O)C1(c2ccccc2)CCN(CC(=O)c2ccc(NC(C)=O)cc2)CC1	13	-0.7
CCOC(=O)c1cc2c(cn1)[C@@H](CCO)NC2	-2	1.0
O=S(=O)(c1ccccc1)N1CCN(S(=O)(=O)c2ccccc2)c2ccccc21	13	3.1
O=[N+]([O-])c1ccc(C(=Nc2ccccc2)N2CC2)cc1	6	2.6
CC1(O)CCC2C3CCC4=CC(=O)CCC4(C)C34OC4CC21C (stereo unspecified)	-13	2.5
C[C@]12CC[C@H]3[C@@H](CCC4=CC(=O)CC[C@@]43C)[C@@H]1CC[C@@H]2O	-4&-6	-0.6&0.4
O=C(Cc1c[nH]c2ccccc12)NNCc1ccc(N(CCCl)CCCl)cc1	13	4.8
CN(C)Cc1c[nH]c2ccc([N+](=O)[O-])cc12	-12	4.9
O=C1NC(=O)C2(CCN(S(=O)(=O)c3ccccc3)CC2)C(=O)N1	0	-0.3
O=c1ccc2c(O)c3ccoc3cc2o1	-38	6.3
ClCCN(CCCl)c1ccc(C2=NCCc3ccccc32)cc1	6	1.5
O=C1NC(=O)N(CCc2ccc(F)cc2)C(=O)/C1=C\C=C\c1ccccc1	10	7.8
CC(CC(C#N)(c1ccccc1)c1ccccc1)N(C)C (stereo unspecified)	-4	1.0
O=P(N1CCCCCC1)(N1CCCCCC1)N1CC1	6	2.9
Cc1ccccc1O	2	4.9
CCN(CC(=O)Nc1ccc(C#N)c(Cl)c1)CC(=O)NC1CCS(=O)(=O)C1 (stereo unspecified)	3	1.2
CCCC[C@@H](C)C[C@@H](C)C(=O)N(C)[C@@H](CC(C)C)C(=O)N[C@H](C(=O)N(C)[C@H](C(=O)N1C[C@@H](O)C[C@H]1C(=O)N1C(=O)C=C[C@@H]1C)C(C)C)C(C)OC(C)=O (stereo partly specified)	36	11
COC(=O)[C@@H]1C(OC(=O)c2ccccc2)CC2CCC1N2C (stereo partly specified)	0	4.2
COC(=O)C1C2CC[C@@H](CC1OC(=O)c1ccccc1)N2 (stereo partly specified)	1	0.3
CCC1(CC)COP(=O)(OCC(Cl)CCl)OC1 (stereo unspecified)	-3	-1.5
CCOP(=S)(OCC)N1CC1	0	2.0
O=C(NN=Cc1ccc(N(CCCl)CCCl)cc1)c1cccnc1	5	-39
COc1cc2c(c(OC)c1OC)-c1ccc(O)cc1C(NC(C)=O)CC2 (stereo unspecified)	22	0.4
O=P(Oc1ccc(-c2ccccc2)cc1)(N1CC1)N1CC1	-7	4.2
CCOC(=O)c1ccccc1N	-6	-53
CC1C(c2ccccc2)OC(=O)N1C (stereo unspecified)	-3	1.4
CSc1ncc(/C=C2/C(=O)NC(=O)N(c3ccc(Cl)cc3)C2=O)cn1	0	8.1
COc1ccc(C2C3=C(CC(C)(C)CC3=O)Oc3ncn4nc(-c5ccccc5)nc4c32)cc1 (stereo unspecified)	2	4.1
COc1ccc2c(c1)NP(=S)(c1ccccc1)N2 (stereo unspecified)	13	3.8
N#Cc1ccc(NC(=O)CN2CCN(C(=O)c3cccs3)CC2)cc1Cl	12	3.3
O=C1/C(=C/c2ccccc2)C[C@@]2(O)[C@H]3Cc4ccc(O)c5c4[C@@]2(CCN3CC2CC2)C1O5 (stereo partly specified)	69*	6.8

Rewritten as labelled records: part of the list above
Structure: CC1C(c2ccccc2)OC(=O)N1C (stereo unspecified)
  B2AR ag: -3
  UCH37 DUB inh: 1.4
Structure: CSc1ncc(/C=C2/C(=O)NC(=O)N(c3ccc(Cl)cc3)C2=O)cn1
  B2AR ag: 0
  UCH37 DUB inh: 8.1

Other compounds.
SMILES	B2AR ag	UCH37 DUB inh
O=C1NC(=O)C2(CCCc3ccc(N(CCCl)CCCl)cc32)N1 (stereo unspecified)	-4	4.4
Nc1ccc(-c2ccccc2)cc1	5	1.2
O=[N+]([O-])c1ccc(N2CC2)c([N+](=O)[O-])c1	-8	6.1
O=C(NC1CC1)c1cn(Cc2ccccc2)nc1-c1ccccc1	-4	4.4
CN(C)c1ccc(C=C2C(=O)NC(=O)NC2=O)cc1	17	3.0
O=C(NN=Cc1ccc(N(CCCl)CCCl)cc1)C(=O)c1c[nH]c2ccccc12	15	-5.1
C=CCN(CC=C)C(=O)CCN1CC1C (stereo unspecified)	15	0.5
COc1ccc2c3c1OC1[C@H](O)CCC4[C@@H](C2)N(C)CC[C@]314 (stereo partly specified)	-2	3.1
CC1(C)CC2CCC(O)C2C(CCO)N1 (stereo unspecified)	7	-0.2
CN1C2CCC1C(C(=O)O)C(OC(=O)c1ccccc1)C2 (stereo unspecified)	3	3.4
CCOc1ccc(N)cc1	-7	1.1
COc1ccc(C=C2C(=O)NC(=S)NC2=O)cc1OC	-6	4.1
CSc1ncc(Br)c(N2CC2)n1	-1	1.2
Oc1c(Cl)cccc1Cc1cc(Cl)cc(Cl)c1O	6	4.4
CN1C(=O)C[N+]([O-])=C(c2ccccc2)c2cc(Cl)ccc21	-1	3.0
CCC1(CC(C)c2ccccc2)C(=O)NC(=O)NC1=O (stereo unspecified)	3	-1.2

An excerpt from above in order of SMILES length, ascending:
SMILES	B2AR ag	UCH37 DUB inh
Cc1ccccc1O	2	4.9
CNC(C)Cc1ccccc1 (stereo unspecified)	-3	0.1
O=C1NCCCCC1(Cl)Cl	-6	2.2
CCOP(=S)(OCC)N1CC1	0	2.0
CSc1ncc(Br)c(N2CC2)n1	-1	1.2
O=c1ccc2c(O)c3ccoc3cc2o1	-38	6.3
CC1(C)CC2CCC(O)C2C(CCO)N1 (stereo unspecified)	7	-0.2
CCC1(CC)COP(=O)(OCC(Cl)CCl)OC1 (stereo unspecified)	-3	-1.5
COc1ccc2c(c1)NP(=S)(c1ccccc1)N2 (stereo unspecified)	13	3.8
COc1ccc2c(c1)NP(=S)(c1ccccc1)N2C (stereo unspecified)	-1	5.4
CCC1(CC(C)c2ccccc2)C(=O)NC(=O)NC1=O (stereo unspecified)	3	-1.2
CN(C)Cc1c[nH]c2ccc([N+](=O)[O-])cc12	-12	4.9
CN1C2CCC1C(C(=O)O)C(OC(=O)c1ccccc1)C2 (stereo unspecified)	3	3.4
O=C(NC1CC1)c1cn(Cc2ccccc2)nc1-c1ccccc1	-4	4.4
O=[N+]([O-])c1ccc(C(=Nc2ccccc2)N2CC2)cc1	6	2.6
COC(=O)[C@@H]1C(OC(=O)c2ccccc2)CC2CCC1N2C (stereo partly specified)	0	4.2
CN1C(=O)C[N+]([O-])=C(c2ccccc2)c2cc(Cl)ccc21	-1	3.0
O=C(Cc1c[nH]c2ccccc12)NNCc1ccc(N(CCCl)CCCl)cc1	13	4.8
CSc1ncc(/C=C2/C(=O)NC(=O)N(c3ccc(Cl)cc3)C2=O)cn1	0	8.1
O=C1NC(=O)N(CCc2ccc(F)cc2)C(=O)/C1=C\C=C\c1ccccc1	10	7.8
COc1ccc2c3c1OC1[C@H](O)CCC4[C@@H](C2)N(C)CC[C@]314 (stereo partly specified)	-2	3.1
O=C(NN=Cc1ccc(N(CCCl)CCCl)cc1)C(=O)c1c[nH]c2ccccc12	15	-5.1
COc1ccc(C2C3=C(CC(C)(C)CC3=O)Oc3ncn4nc(-c5ccccc5)nc4c32)cc1 (stereo unspecified)	2	4.1
C[C@]12CC[C@H]3[C@@H](CCC4=CC(=O)CC[C@@]43C)[C@@H]1CC[C@@H]2O	-4&-6	-0.6&0.4
CC[C@H](C)/C=C(C)/C=C/C1=CC2=C(Cl)C(=O)[C@](C)(OC(C)=O)C(=O)C2=CO1	8	16
O=C1/C(=C/c2ccccc2)C[C@@]2(O)[C@H]3Cc4ccc(O)c5c4[C@@]2(CCN3CC2CC2)C1O5 (stereo partly specified)	69*	6.8
CCCC[C@@H](C)C[C@@H](C)C(=O)N(C)[C@@H](CC(C)C)C(=O)N[C@H](C(=O)N(C)[C@H](C(=O)N1C[C@@H](O)C[C@H]1C(=O)N1C(=O)C=C[C@@H]1C)C(C)C)C(C)OC(C)=O (stereo partly specified)	36	11

Not all compounds are listed; count on the stated rates, not on these rows.
